Source: PubChem BioAssay
CSC inhib: blocks cancer stem cells; cancer stem cell-like cells viability, luminescence; inhibition, % at 7.5 µM; 300,000 compounds, 1.1% hits; AID 2717;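 active = mean at 75% or more and at least half the replicates too; inconclusive = mean and replicates disagree; tested in HMLE shEcad cells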;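 note: 0% = median of negative and 100% = median of positive control wells; the first replicate is given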
MT1-MMP act inh: MT1-MMP (human) activation inhibition; HT1080 RFP-PRO-GFP cells, GFP/RFP ratio fluorescence, overnight; percent of plate control window, DMSO zero; GFP/RFP ratio change, % at 20 µM; 360,000 compounds, 0.061% hits;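 active = GFP/RFP ratio change of at least 30% with cell ATP level not reduced by more than half and red fluorescence within 50% of control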; note: strong numbers were not always called active
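Assay system – RFP-PRO-GFP reporter HT1080 cells · Compound dosing – single dose of 20 µM compound, 1% DMSO final · Incubation – overnight compound exposure at 37 °C · Measure – GFP/RFP fluorescence ratio · Benchmarks – DMSO wells and RFP-L50D-GFP cells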
Rce1 inhib: yeast Ras-converting enzyme inhibition; calls only; 290,000 compounds, 0.27% hits; Q03530; yeast membranes, quenched prenylated peptide cleavage fluorescence; AID 2563;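 active = fall in fluorescence gain of 50% or more versus controls, with final raw signal at or below 3038400; inconclusive = same 50% fall but final raw signal above 3038400; inactive = fall in fluorescence gain under 50%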;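 note: plate controls were neutral control wells for no effect and wells lacking membranes for full effect; tested at 10 µM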
Target sequence (Q03530 whole entry, looked up): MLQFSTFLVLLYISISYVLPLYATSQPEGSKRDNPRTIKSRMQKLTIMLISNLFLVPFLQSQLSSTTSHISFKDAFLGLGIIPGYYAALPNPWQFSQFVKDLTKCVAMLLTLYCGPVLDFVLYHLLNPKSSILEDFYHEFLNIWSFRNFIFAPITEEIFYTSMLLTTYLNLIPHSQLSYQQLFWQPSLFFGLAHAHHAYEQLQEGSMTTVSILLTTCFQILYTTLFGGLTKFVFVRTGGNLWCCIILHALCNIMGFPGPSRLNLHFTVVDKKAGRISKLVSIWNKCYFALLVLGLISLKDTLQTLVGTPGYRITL
eIF4H inh: inhibitors of RNA binding by human eIF4H; Q15056; eIF4H fluorescence polarization binding assay; inhibition, % at 35 µM; 290,000 compounds, 0.94% hits; AID 2012;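 active = 50% or more with normal probe brightness, or confirmed in later tests; inconclusive = above 50% with abnormal brightness, or retests that disagree; inactive = below 50% or failed in later tests; about a fifth of its hits are not listed in these tables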;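 note: calls also rest on retests at 20 µM and on dose response follow-up; 0% = protein and probe with vehicle and 100% = probe without protein; strong numbers were not always called active; many hits fall short of the cut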
HIV Env fusion: inhibitors of HIV Env-mediated cell fusion | 360,000 compounds, 1.1% hits | HeLa-JRFL Env/CEM21 cell fusion, luciferase | inhibition, % at 12.3 µM;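 active = mean replicate inhibition score of at least 50 and every replicate individually at or above 50; inconclusive = only one of the two criteria met; inactive = mean below 50 and not all replicates reaching 50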;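 note: 0% = plate neutral controls and 100% = maraviroc near 300 nM; one replicate is shown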
PABP FP inh: PABP-poly(A) binding inhibition | PABP-poly(A) RNA binding, fluorescence polarization | inhibition, % at 35 µM | 290,000 compounds, 1% hits;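 active = 50% or more with normal probe brightness, or confirmed in later tests; inconclusive = above 50% with abnormal brightness, or retests that disagree; inactive = below 50% or failed in later tests; about a fifth of its hits are not listed in these tables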;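 note: calls also rest on retests at 20 µM and on dose response follow-up; controls were probe without protein and protein plus probe with vehicle; some compounds called inactive have numbers as strong as hits; many hits fall short of the cut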
Yeast UUG start: modulators of start codon recognition fidelity in yeast; S. cerevisiae UUG-firefly luciferase reporter, luminescence/redox ratio; activity score, % at 18.7 µM; 350,000 compounds, 0.13% hits; AID 602363;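 active = replicate mean at a twofold rise or more, about +100% in these data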;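 note: firefly luciferase made from a UUG start codon reports start codon fidelity; reporter light over untreated wells divided by growth signal over untreated wells; some hits fall short of that in this replicate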
eIF4H inh retest: also measured in eIF4H inh; calls as there; inhibition, %; compound at 20 µM; confirmation average;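 mean of two retest wells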
PABP FP inh retest: further read-out of PABP FP inh, marked with its call; inhibition, %; compound at 20 µM; confirmation repeats;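 mean of two retest wells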
MT1-MMP act inh RFP: recorded beside MT1-MMP act inh, whose call it bears; RFP signal change, %; measured here: RFP expression control read;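 0 = vehicle wells; hits needed this value within 50% of zero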
* marks the source's active call; other numbers are inactive results; i = inactive; ? = inconclusive; / = no result given.

SMILES	CSC inhib	MT1-MMP act inh	MT1-MMP act inh RFP	Rce1 inhib	eIF4H inh	HIV Env fusion	PABP FP inh	Yeast UUG start	others
CCOC(=O)CNC(c1ccccc1)c1cc(Br)ccc1NC(=O)OCC (centres undefined)	7	-17	-12	i	104*	/	55*	-10	eIF4H inh retest=60*;PABP FP inh retest=56*
COc1cc(C(CCN2CCCCC2)c2c(OC)cc(OC)c3c(-c4ccccc4)cc(=O)oc23)cc(OC)c1OC (centres undefined)	-6	7	-3	i	-11	-27	-5	18
Cc1ccc(-c2nc(CS(=O)CC(=O)NCc3ccc(F)cc3)c(C)o2)cc1 (centres undefined)	-3	-1	2	i	-8	3	-4	-6
CCOc1ccc2nc(C)cc(Nc3ccc(N4CCOCC4)cc3)c2c1	1	/	/	/	-9	/	5	/
Cc1nnc(SCCc2ccccc2)[nH]c1=O	-10	1	0	i	2	-53	6	-3
N#Cc1sc(NCc2ccccn2)nc1Cl	-2	-2	-3	i	1	-12	12	8
COc1ccc(N(C)C(=O)c2cc3c(s2)-c2c(C)cccc2OC3)c(OC)c1	36	-7	-7	i	5	11	4	-6
Cc1ccc(NC(=O)c2ccc(N3C(=O)C4CC=C(Cl)CC4C3=O)cc2)cc1 (centres undefined)	/	-2	0	i	-4	/	-6	3
CC(C)CCN1C(=O)CCC1(C)C(=O)NC1CCCCCCC1 (centres undefined)	-7	-1	3	i	-8	/	-1	0
O=C(CCc1ccccn1)N1CCCC(CNS(=O)(=O)c2cccs2)C1 (centres undefined)	-8	0	2	i	4	2	9	/
Cc1cc(OC(=O)c2ccccc2F)c([N+](=O)[O-])c(=O)[nH]1	7	4	4	i	-10	-4	2	-3
O=C(COc1cccc(C(F)(F)F)c1)Nc1ccc(S(=O)(=O)N2CCCC2)cc1	19	-2	-12	i	-1	/	-9	11
CCN(CC(=O)Nc1ccc2c(c1)OCCO2)C(=O)CC(NC(C)=O)c1ccccc1 (centres undefined)	-5	4	1	i	/	6	/	-15
O=C1CCN(C(=O)Nc2cccc(Cl)c2)N1	-9	5	0	i	-4	11	-3	-11
O=C(CS(=O)(=O)Cc1ccccc1)N1CCN(C(=O)c2ccco2)CC1	-2	4	3	i	50	-54	14	-13
CN(CCc1ccccn1)C1CCCN(S(=O)(=O)c2ccc(F)c(Cl)c2)C1 (centres undefined)	8	-1	0	i	3	5	-2	15
c1coc(-c2nc3c4c5c(sc4ncn3n2)CCCC5)c1	-21	-3	-1	i	4	-101	-4	-15
N#C/C=C\Oc1ccc(Cl)cc1N	24	2	3	i	6	/	-4	-13
CC(/C=C/c1ccccc1F)=N\NC(=O)c1ccc(Cl)cc1	8	8	3	i	-6	-1	4	/
O=C(NC1CCS(=O)(=O)C1)c1cnccn1 (centres undefined)	-9	-13	-9	i	-4	-3	2	-12
O=C(Oc1coc(CSc2ncccn2)cc1=O)c1cccc([N+](=O)[O-])c1	-15	4	5	i	4	-8	-7	/
CCN(CC)C(=S)SCC(=O)Nc1ccc(F)cc1	6	-4	-2	i	-10	/	3	-6
CCOC(=O)c1cnc(SC2CC(=O)N(c3cccc(OC)c3)C2=O)nc1N (centres undefined)	-13	6	-7	i	13	/	0	-3
Cc1ccc(-c2nc3ccccn3c2NC(=O)c2ccco2)cc1	-3	-2	3	i	14	/	-11	-40
Cc1ccsc1/C=N/Nc1ncnc2nc[nH]c12	-7	4	6	i	-8	-19	3	/
CCOc1ccc(NC(=O)COC(=O)C23CC4CC(CC(C4)C2)C3)c([N+](=O)[O-])c1	-1	7	10	i	-10	/	-7	-14
Cc1cccc2c(C(=O)N3CCN(c4ccccn4)CC3)cc(-c3cccc(Br)c3)nc12	22	-2	-6	i	-8	7	-3	-15
O=C(CC1C(=O)NCCN1Cc1ccc(Cl)c(F)c1)NC1CCC1 (centres undefined)	-16	-2	3	i	27	0	24	2
Cc1ccc(C2CC(c3cccc(Cl)c3)n3nc(N)nc3N2)cc1 (centres undefined)	-32	-3	-1	i	0	-5	-1	-14
CC1CCN(C(c2ccccc2)c2nnnn2C(C)(C)C)CC1 (centres undefined)	-11	-3	-3	i	3	/	17	-13
Cc1ccc(N/C(=N/S(=O)(=O)c2cccs2)c2ccccc2)c(C)c1	30	-7	-14	i	3	34	2	/
COc1cccc(CNC(=O)COC(=O)c2c(C)nn(-c3ccccc3)c2Cl)c1	/	-5	-2	/	/	-5	/	-6
COc1cc(OC)cc(-c2nc3nc(C)c(CCC(=O)NCc4ccco4)c(C)n3n2)c1	10	11	-4	i	-9	-79	-10	11
CCC(CO)Oc1cc(NCc2ccccn2)c2ncn(C(C)C)c2c1 (centres undefined)	/	3	5	/	/	22	/	-18
O=C(O)c1cccc(Cl)n1	-11	4	5	i	-7	-25	5	-15
COc1cccc2cc(C(C)N(CCCN3CCOCC3)C(=S)Nc3cc(C)cc(C)c3)oc12 (centres undefined)	5	7	0	i	2	-39	3	/
COc1ccccc1NC(CC(=O)c1ccccc1)C(=O)OCC(=O)c1ccc(C)cc1 (centres undefined)	4	-3	2	i	0	/	2	/
CCOC(=O)N1C2=NC(C(=O)OC)=C(C(=O)OC)[C@@H]3N(C)c4ccc(OC)cc4[C@]23C[C@H]1C(=O)OC	1	4	0	i	/	-47	/	-21
CCOC(=O)Cn1ccc(NC(=O)c2ccc3c(c2)OCO3)n1	-8	2	3	i	4	-8	2	-5
CN(Cc1nc(Cc2ccccc2F)no1)[C@@H]1CS(=O)(=O)C[C@H]1O	3	-1	4	i	2	-30	3	/
O=C(Cc1ccccc1)NNC1CC(=O)N(c2ccc(Oc3ccccc3)cc2)C1=O (centres undefined)	-1	-1	-1	i	-2	0	6	/
Cc1ccc([C@H]2N[C@]3(CCCN(Cc4ccco4)C3=O)[C@H]3C(=O)N(C)C(=O)[C@@H]23)cc1	/	3	5	/	/	-11	/	-2
COCc1ccc(-c2c(-c3ccccc3OC)sc3cc4c(cc23)OCO4)cc1	20	0	-1	/	/	6	/	-6
O=C(NCC(=O)N1CCN(Cc2ccccc2)CC1)c1cc(Cl)cc([N+](=O)[O-])c1	-4	6	-12	/	/	/	/	-11
CC(C)(C)OC(=O)N[C@@H](Cc1ccccc1)C(=O)NCC1CCC(C(=O)N[C@@H](CC(=O)O)C(=O)O)CC1 (some centres undefined)	-11	-9	-7	i	8	-5	1	0
CCOC(=O)C1CCCN(c2nc3ccccc3nc2C(C#N)C(=O)OCC)C1 (centres undefined)	0	-10	-8	i	2	/	12	-2
Cc1[nH]c2ccc(-c3n[nH]c(=S)n3-c3ccc(Br)cc3)cc2c1C	11	2	1	i	-1	-4	-2	/
CC1C(=O)C(C)C(c2ccc3c(c2)OCO3)NC1c1ccc2c(c1)OCO2 (centres undefined)	-7	3	2	i	-1	/	-3	-17
CCN(CC(=O)Nc1c(F)cccc1F)C(=O)CCC(=O)c1ccc(C)cc1	-3	-3	-3	i	/	-1	/	-4
CCOC(=O)c1oc2ccccc2c1NC(=O)c1ccc(S(=O)(=O)N(C)C)cc1	8	5	4	i	0	-9	10	/
Cc1ccccc1CC1(CO)CCCN(C(=O)c2cc(-c3ccccc3)no2)C1 (centres undefined)	9	-5	0	/	-3	7	8	1
COC(=O)c1ccc(NC(=S)N2CCN(Cc3ccccc3Cl)CC2)cc1	7	-3	-1	i	0	-5	-9	/
CCCCC(=O)Nc1ccc(C(=O)NNC(=O)CCc2ccccc2)cc1	21	10	2	/	-9	/	-6	2
C=C(C)Cn1c2ccc(NC(=S)NCc3ccccc3F)cc2c(=O)n1C	/	-1	-2	/	/	1	/	-9
c1ccc(-n2c(-c3ccncc3)nnc2-c2cccs2)cc1	-5	-4	1	i	8	9	4	-21
O=C(CNC(=O)c1[nH]cnc1C(=O)NC(c1ccccc1)c1ccccc1)OCc1ccccc1	-2	-2	-1	i	10	3	3	-20
NC(=O)CC(NC(=O)c1cccc(Br)c1)c1ccc(N2CCCCCC2)c([N+](=O)[O-])c1 (centres undefined)	3	8	-6	i	-6	5	5	7
CN1CCN(C(=O)c2cnn(-c3ccccc3)c2NC(=O)c2ccc([N+](=O)[O-])cc2)CC1	/	-1	1	i	2	1	7	-11
CCc1nc2ccc(C(=O)N3CCN(S(=O)(=O)CC)CC3)cn2c1N(CC)CCOC	/	-2	6	/	/	-30	/	-22
COc1ccc(CCNC(=O)CSc2nnc(-c3ccc(F)cc3)c3ccccc23)cc1OC	-13	0	-1	i	-2	6	5	/

Remaining list, next part:
SMILES	CSC inhib	MT1-MMP act inh	MT1-MMP act inh RFP	Rce1 inhib	eIF4H inh	HIV Env fusion	PABP FP inh	Yeast UUG start	others
CCCCc1cc(=O)oc2c(CN3CCCC3)c(O)c(Cl)cc12	3	-2	0	i	?	-17	?	-32
COC(=O)CSc1nc(-c2ccccc2)nc2ccc(F)cc12	7	4	0	i	12	-3	3	-10
O=C(NCc1ccco1)c1cc(S(=O)(=O)N2CCOCC2)ccc1Br	-3	0	1	i	1	-21	6	-5
COc1ccc(/C=C/C(=O)NC2CCS(=O)(=O)C2)cc1 (centres undefined)	-1	2	1	i	/	-2	/	-7
